# Vaccinia mCherry = vaccinia inhibition (mCherry reporter); Vaccinia virus mCherry reporter infection, fluorescence; about a quarter of the inactives have no number; 310,000 compounds, 0.63% hits; Potency, µM (highest dose often 36.5 µM), inactives show top-dose activity change, negative = inhibition, most hits filed as inhibitors; active = well fitted inhibition curve with a large enough effect; inconclusive = small, poorly fitted or top-dose-only effect; inactive = no such curve, though single readings can be large or run the other way; tested in A549 cells; note: nearly all actives have a fitted effect of over 35% in size; inactives centre near -10
# Vaccinia Venus = inhibitors of vaccinia virus (Venus reporter); Vaccinia virus Venus reporter expression, fluorescence; Potency, µM (series often up to 36.5 µM), inactives show at the highest dose activity change, negative = inhibition, usual class: inhibitors; 330,000 compounds, 0.46% hits; active means well fitted inhibition curve with a large enough effect; inconclusive means small, poorly fitted or top-dose-only effect; inactive means no such curve, though single readings can be large or run the other way; tested in A549 cells; note: nearly all actives have a fitted effect of over 30% in size; inactives centre near -10
# * marks the source's active call; other numbers are inactive results; i = inactive; ? = inconclusive; . = no result given; & = joins results of further samples; [ ] = remark or other dose. % is set by controls: 0 for no effect and ±100 for the full control effect; potency is the fitted concentration of half-maximal effect. Rows are unselected; any-hit rate near 0.86%.
compound | Vaccinia mCherry | Vaccinia Venus
Brc1cccc[n+]1C/C=C/C[n+]1ccccc1Br | 43%[activator] | -3%
CC(C)C(=O)Nc1nnc(SCC(=O)Nc2ccc3c(c2)OCCO3)s1 | i | -4%
COc1ccccc1N1CCN(C(=O)C2CCN(S(=O)(=O)c3cn(C)cn3)CC2)CC1 | i | -13%
CC1CCc2sc(C(=O)N/N=C/c3ccc([N+](=O)[O-])cc3)cc2C1 (configuration not stated) | -12% | -3%
CC(C)c1ccc(NC2CCCN(C(=O)CCN3CCCC3=O)C2)cc1 (configuration not stated) | -2% | -19%
Cc1ccc(C(=O)O)cc1NC(=S)NC(=O)c1ccc(-c2ccc(Cl)cc2)o1 | -8% | -8%
CC1=CN2C(=N)/C(=C/c3cn(CCCOc4ccccc4C)c4ccccc34)C(=O)N=C2S1 | -9% | -1%
CCOC(=O)C1=C(O)/C(=C\c2ccc(CNS(=O)(=O)c3ccc(Br)cc3)o2)N=C1C | -12% | 33%[activator]
CN1CCCC(C)(C(=O)Nc2ccc3scnc3c2)C1 (configuration not stated) | -4% | 1%
Oc1ccc(Cl)cc1C1=NNC(c2cccs2)C1 (configuration not stated) | ? | -8%
Cc1cc2c(cc1C)N(CC(=O)N1CCCC1)C(=O)CC(c1ccccc1)=N2 | -12% | 1%
O=C(CN1CCC(O)(c2ccc(F)cc2)CC1)NCc1ccc(F)cc1 | -3% | -19%
NC(=O)c1cc(N2C(=O)C=CC2=O)ccc1Cl | -5% | 1%
CC(C)(C)C1CCc2c(sc(NC(=O)Cn3nnc(-c4cccc(C(F)(F)F)c4)n3)c2C#N)C1 (configuration not stated) | -12% | -13%
COc1ccc(CNC(=S)NCc2ccc(OC)cc2)cc1 | -3% | -22%
CC(=O)Nc1cccc(Oc2nc(-c3ccccn3)nc3ccccc23)c1 | ? | -20%[7.34 µM]
O=c1oc2ccccc2cc1-c1csc(Cc2nc(-c3ccc(Cl)cc3)cs2)n1 | -16% | -9%
Cc1ccc(C)c(NC(=O)c2cnn(-c3cccc(F)c3)c2C2CCN(C(=O)OC(C)(C)C)CC2)c1 | -15% | -7%
N=C1C(c2nc3ccccc3s2)=C(O)CN1NC(=O)c1c[nH]c2ccccc12 | i | -3%
O=Cc1ccc(-n2cc(C=O)c3ccccc32)cc1 | i | -1%
CCn1c(CNC(=O)COc2ccc(C(C)C)cc2)nnc1SCC(=O)Nc1cc(F)ccc1C | i | -18%
CNC(=O)[C@@H]1C[C@H]1[C@@H](NC(=O)CNC(=O)OCc1ccccc1)c1ccccc1 | -10% | -3%
CCc1cc(C(=O)N=Nc2c(O)[nH]c3ccc([N+](=O)[O-])cc23)c2ccccc2n1 | -8% | -18%
CCCN(CC(=O)Nc1c(C)cccc1CC)C(=O)SCC | . | -19%
CCOc1ccc(NC(=O)C(c2ccccn2)N(C(=O)CCl)c2ccc(F)cc2)cc1 (configuration not stated) | i | 0%
Cc1[nH]c2ccccc2c1/C=N/Nc1nc(N2CCCCC2)nc(N2CCCCC2)n1 | -16% | -7%
O=C(CCCC(=O)OCC(F)(F)C(F)F)Nc1nccs1 | -5% | -4%
O=C(C1CCCN(S(=O)(=O)c2cnc[nH]2)C1)N(CCc1ccccc1)Cc1ccccc1 (configuration not stated) | 5% | 3%
COc1ccc(-c2c(C#N)c(N)nc3c2CCCC3)cc1OC | -6% | -16%
COc1ccc(O)c(/C=N/c2nc3ccccc3n2C)c1 | i | -14%

# 2 entries picked at random from those above, as already listed:
compound | Vaccinia mCherry | Vaccinia Venus
CNC(=O)[C@@H]1C[C@H]1[C@@H](NC(=O)CNC(=O)OCc1ccccc1)c1ccccc1 | -10% | -3%
Cc1ccc(C)c(NC(=O)c2cnn(-c3cccc(F)c3)c2C2CCN(C(=O)OC(C)(C)C)CC2)c1 | -15% | -7%

# More results follow:
compound | Vaccinia mCherry | Vaccinia Venus
COc1cc(NS(=O)(=O)c2ccc(Cl)cc2)c(C(=O)O)cc1OC | -13% | -8%
COCC1CCCCN1C(=O)c1ccc2oc(CCCc3ccccc3)nc2c1 (configuration not stated) | -13% | -25%
CC(C)CC(NC(=O)OC(C)(C)C)C(=O)NC(C(=O)N1CCCC1C(N)=O)C(C)C (configuration not stated) | . | -11%
Cc1cc(SCc2cc(=O)[nH]c3ccccc23)nc2ccccc12 | . | -14%
Cc1ccc(S(=O)(=O)C2(C(=O)NC3CCCCC3C)CC2)cc1 (configuration not stated) | ? | -5%
O=C1C2CC=C(Cl)CC2C(=O)N1CN(Cc1ccco1)CN1C(=O)C2CC=C(Cl)CC2C1=O (configuration not stated) | . | -9%
COc1ccc(N2CCN(Cc3nc4ccccc4[nH]3)CC2)cc1 | -24% | -7%
CCc1n[nH]c(=S)n1/N=C/c1c[nH]c2ccc(Br)cc12 | ? | -30%
NC1C(O)OC(CO)[C@@H](O)[C@@H]1O[C@H]1O[C@@H](C(=O)O)C(O)C(O)C1O (some centres not stated) | i | -6%
CC1=NN(c2ccc(C)c(C)c2)C(=O)/C1=C/c1ccc2c(c1)n(C)c(=O)n2C | -1% | -8%
CC(=O)N1CCc2c(sc3nc(SCC(N)=O)n(-c4ccc(F)c(Cl)c4)c(=O)c23)C1 | -2% | 0%
O=C(c1ccc2nc3ccc(Cl)cc3c(=O)n2c1)N1CCC2(CC1)OCCO2 | -7% | 3%
COc1ccc(CNC(=O)Cn2c(=O)c3cccn3c3cccnc32)cc1 | -5% | 2%
Cc1ccc(-n2ncc3c2CCCC3NC(=O)CCc2cnn(C)c2)cc1C (configuration not stated) | -12% | -7%
CCc1nnc(NC(=O)C2CCCN(C(=O)c3ccoc3)C2)s1 (configuration not stated) | -10% | -6%
COCCNC(=O)CN(C(=O)Cn1nnc2ccccc21)c1cccc(C)c1C | -7% | -7%
COCc1c(C(=O)N2CCN(C(C)C)CC2)cnn1-c1nccc(-c2cc(C)sc2C)n1 | -9% | -4%
O=S1(=O)CCC(NC(=S)NCCNC(=S)NC2CCS(=O)(=O)C2)C1 (configuration not stated) | -12% | 0%
Fc1ccc2cc(CCO[C@H]3CCCCO3)ncc2c1 | -8% | -3%
O=C(NCc1ccccc1)C1=C[C@@H](c2ccc3c(c2)OCO3)C[C@@H](OCc2ccc(CO)cc2)O1 | -24% | -9%
O=c1oc(-c2ccccc2NS(=O)(=O)c2ccc3ccccc3c2)nc2ccccc12 | -13% | -7%
COc1ccc(C(=O)NCc2nnc(SCC(=O)Nc3cccc(C(F)(F)F)c3)o2)cc1OC | -3% | -20%
CCOC(=O)/C(C#N)=C/c1cn(CCC(=O)O)nc1-c1ccccc1 | -4% | -4%
Cc1onc(-c2ccccc2)c1C(=O)Nc1ncc([N+](=O)[O-])s1 | ? | ?
COc1ccc(S(=O)(=O)N2CCC(NC(=O)C(Cc3cccc(OC)c3OC)NC(C)=O)CC2)cc1 (configuration not stated) | i | -5%
Cc1cc(C)nc(SCc2ccc(C(=O)N/N=C/C3CCCCC3)cc2)n1 | i | 0%
CN1CCN(C(c2ccc(F)cc2)c2nnnn2Cc2cccs2)CC1 (configuration not stated) | i | -16%
CC1CCN(CCNC(=O)C2CCCN(S(=O)(=O)c3cccc4nonc34)C2)CC1 (configuration not stated) | . | -18%
O=C(Nc1cccc([N+](=O)[O-])c1)N1CCc2ccccc2C1 | -24% | -15%
CCOc1cc(/C=C2\NC(=S)N(c3c(C)n(C)n(-c4ccccc4)c3=O)C2=O)ccc1O | i | 42%[activator]
CC(C)N(O)C(=O)NC(C)(C)C | . | 8%
CCN(CC)CCCNc1nc(N)c([N+](=O)[O-])c(N2CCCCCC2)n1 | ? | -9%
Nc1ccc(NC2C[C@@H](C(=O)O)NC2=O)cc1 (some centres not stated) | i | -15%
CC(=O)NC1=C(NC2CCS(=O)(=O)C2)C(=O)c2ccccc2C1=O (configuration not stated) | -18% | ?
O=C(/C=C/c1cccc(C(F)(F)F)c1)N1CCN(c2ccccn2)CC1 | -26% | -22%
COC(=O)Cc1ccc(NC(=O)c2ccc(NC(=O)c3ccco3)cc2)cc1 | -21% | -4%
CCc1ccccc1Nc1nn2c(=O)c3ccc(C(=O)NC4CCCCC4)cc3nc2s1 | -24% | -28%
CCn1c(-c2ccccc2Cl)nn(CC(=O)Nc2ccccc2C)c1=S | . | -14%
COc1ccc(C(=O)N2CCCC(C(=O)O)C2)c2ccccc12 (configuration not stated) | -12% | 10%
c1ccc(C(c2ccccc2)N2CCN(C(c3ccccn3)c3nnnn3C3CCCC3)CC2)cc1 (configuration not stated) | -9% | 7%
O=C(Nn1cnc2ccccc2c1=O)c1ccccc1[N+](=O)[O-] | 0% | -4%
COc1ccccc1OCCSc1nc2ccc([N+](=O)[O-])cc2s1 | -19% | -14%
COc1ccc(CCNC(=O)CCS(=O)(=O)c2cc3c(cc2Cl)NC(=O)CO3)cc1OC | 4% | 6%
COc1ccc(S(=O)(=O)N(C)c2ccc(C(=O)N3CCOCC3)cc2)cc1 | . | -27%
Cc1ccc(NC(=O)CCc2c[nH]c3ccccc23)nc1 | -14% | -22%
O=S(=O)(O)c1cc(O)c2c(O)c(N=Nc3cc(Cl)ccc3O)c(S(=O)(=O)O)cc2c1 | 491%[activator] | 421%[activator]
Cc1ccc(C(C(=O)NCC2CCCO2)N(C(=O)c2snc(C(N)=O)c2N)c2ccccc2)o1 (configuration not stated) | -11% | -15%
O=C(CCS(=O)(=O)c1ccccc1)Nc1ccc(S(=O)(=O)Nc2ncccn2)cc1 | -4% | -1%
Cc1cc(C)c2sc(N(CCCN(C)C)C(=O)COc3ccc(Cl)cc3)nc2c1 | -28% | -14%
COCCCN(CCCN)Cc1ccco1 | i | -4%
CC1CC(C)(C)Nc2ccc(N=O)cc21 (configuration not stated) | ? | 0%
COc1ccc(CCn2c(-c3cc([N+](=O)[O-])cc([N+](=O)[O-])c3)nc3nc4ccccc4nc32)cc1OC | -17% | -5%
O=C1CCc2cc(S(=O)(=O)NCc3ccc(Cl)cc3)cc3c2N1CC3 | -14% | -5%&-1%
O=C(Oc1ccc2ccc(=O)oc2c1)c1ccc([N+](=O)[O-])cc1 | i | -14%
COc1ccccc1COC(=O)CN1C(=O)NC2(CCCCC2C)C1=O (configuration not stated) | -7% | -4%
CC(=O)Nc1ccc(CN2CCN(C3CCCC3)C(CCO)C2)cc1 (configuration not stated) | -22% | -19%
N#Cc1ccccc1 | i | -10%
CCOc1ccccc1CNC(=O)c1cc(-c2ccc(Cl)s2)nc2ccccc12 | -16% | -14%
Oc1[nH]c2ccccc2c1/C=N/c1nccs1 | 5% | 14%
COc1ccc(Cl)c2sc(N3CCN(C(C)=O)CC3)nc12 | 7%[7.34 µM] | 22%[7.34 µM]

# Next section
compound | Vaccinia mCherry | Vaccinia Venus
CCN1C(=O)c2ccccc2Sc2ccc(C(=O)NCCC(C)C)cc21 | i | -14%
Cc1cccc(CSc2ncc(Cl)c(C(=O)Nc3sc4c(c3C(N)=O)CCCC4)n2)c1 | -25% | -26%
COc1ccc(C(=O)N/C(=C\c2ccc(OC)c(OC)c2)C(=O)N2CCCCC2)cc1 | -8% | 2%
CC1SCC(NC(=O)c2ccccc2Cl)CS1 (configuration not stated) | i | -8%
COc1ccc(C)cc1NC(=O)Cn1c(=O)nc(-c2ccccc2F)c2cc(Cl)ccc21 | -12% | -7%
CCOc1ccc(NC(=O)CSc2ccc(-c3ccccn3)nn2)cc1 | -3% | -12%
CCCCOc1ccc(-c2c(C(=O)Nc3ccccc3)c(C)[nH]c(=S)c2C#N)cc1 | i | -26%
CSc1cccc(NC(=O)CN(C)S(=O)(=O)c2ccc(C)cc2)c1 | . | -28%
CC(=O)c1ccc(NC(=O)c2ccc(N3CCCC3=O)cc2)cc1 | -8% | -6%
O=C1c2cccc(OCc3ccc(F)cc3)c2CCN1Cc1ccc(F)cc1 | ? | ?
CN(C)C(=O)CCC(=O)NCC1Cc2cccc(-c3ccccc3C(F)(F)F)c2O1 (configuration not stated) | -13% | -6%
Oc1c(CN2CCCCC2)ccc2cccnc12 | 8.9µM* | ?
CCN(C(=O)c1cccc(S(=O)(=O)N(C)C)c1)C12CC3CC(CC(C3)C1)C2 | -9% | -9%
O=C(NC(=S)N1CCN(c2ccc(Cl)cc2[N+](=O)[O-])CC1)c1cccs1 | -23% | -27%
Cc1cccc(NC(=O)Nc2cccc(C)n2)n1 | i | -6%

# The list goes on, starting with the last 4 of the part before.
compound | Vaccinia mCherry | Vaccinia Venus
Oc1c(CN2CCCCC2)ccc2cccnc12 | 8.9µM* | ?
CCN(C(=O)c1cccc(S(=O)(=O)N(C)C)c1)C12CC3CC(CC(C3)C1)C2 | -9% | -9%
O=C(NC(=S)N1CCN(c2ccc(Cl)cc2[N+](=O)[O-])CC1)c1cccs1 | -23% | -27%
Cc1cccc(NC(=O)Nc2cccc(C)n2)n1 | i | -6%
CCOc1ccccc1NC(=S)N1C2CCC1CC(NC(=O)NC13CC4CC(CC(C4)C1)C3)C2 (configuration not stated) | -24% | -22%
CCc1ccc(C(O)c2ncc(-c3ccc(Cl)cc3)[nH]2)cc1 (configuration not stated) | 14% | -20%
CCOC1=C2[C@H](c3cccc(Cl)c3)N(S(=O)(=O)c3ccc(C)cc3)C[C@H]2n2c(=O)n(-c3ccccc3)c(=O)n2C1 | -9% | -13%
Cc1ncc2c(n1)NC(=O)NC2 | i | -3%

# Screening data deposited in PubChem BioAssay by National Center for Advancing Translational Sciences (NCATS).
